Screening results deposited in PubChem by several laboratories.
Yeast UUG start: modulators of start codon recognition fidelity in yeast. S. cerevisiae UUG-firefly luciferase reporter, luminescence/redox ratio. activity score, % at 18.7 µM. 350,000 compounds, 0.13% hits;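 active = replicate mean at a twofold rise or more, about +100% in these data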;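 also: firefly luciferase made from a UUG start codon reports start codon fidelity; reporter light over untreated wells divided by growth signal over untreated wells; some hits fall short of that in this replicate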
HIV Env fusion: HIV envelope-mediated fusion inhibition | HeLa-JRFL Env/CEM21 cell fusion, luciferase | inhibition, % at 12.3 µM | 360,000 compounds, 1.1% hits;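 active = mean replicate inhibition score of at least 50 and every replicate individually at or above 50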;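 also: 0% = plate neutral controls and 100% = maraviroc near 300 nM; one replicate is shown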
CSC inhib: blocks cancer stem cells | 300,000 compounds, 1.1% hits | inhibition, % at 7.5 µM | AID 2717 | cancer stem cell-like cells viability, luminescence;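 active = mean at 75% or more and at least half the replicates too; tested in HMLE shEcad cells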;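 also: 0% = median of negative and 100% = median of positive control wells; the first replicate is given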
PABP FP inh: blocks human PABP binding to poly(A) RNA. P11940. fluorescence polarization. inhibition, % at 35 µM. 290,000 compounds, 1% hits;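 active = 50% or more with normal probe brightness, or confirmed in later tests; about a fifth of its hits are not listed in these tables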;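 also: calls also rest on retests at 20 µM and on dose response follow-up; controls were probe without protein and protein plus probe with vehicle; some compounds called inactive have numbers as strong as hits; many hits fall short of the cut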
Target sequence (P11940 whole entry, looked up): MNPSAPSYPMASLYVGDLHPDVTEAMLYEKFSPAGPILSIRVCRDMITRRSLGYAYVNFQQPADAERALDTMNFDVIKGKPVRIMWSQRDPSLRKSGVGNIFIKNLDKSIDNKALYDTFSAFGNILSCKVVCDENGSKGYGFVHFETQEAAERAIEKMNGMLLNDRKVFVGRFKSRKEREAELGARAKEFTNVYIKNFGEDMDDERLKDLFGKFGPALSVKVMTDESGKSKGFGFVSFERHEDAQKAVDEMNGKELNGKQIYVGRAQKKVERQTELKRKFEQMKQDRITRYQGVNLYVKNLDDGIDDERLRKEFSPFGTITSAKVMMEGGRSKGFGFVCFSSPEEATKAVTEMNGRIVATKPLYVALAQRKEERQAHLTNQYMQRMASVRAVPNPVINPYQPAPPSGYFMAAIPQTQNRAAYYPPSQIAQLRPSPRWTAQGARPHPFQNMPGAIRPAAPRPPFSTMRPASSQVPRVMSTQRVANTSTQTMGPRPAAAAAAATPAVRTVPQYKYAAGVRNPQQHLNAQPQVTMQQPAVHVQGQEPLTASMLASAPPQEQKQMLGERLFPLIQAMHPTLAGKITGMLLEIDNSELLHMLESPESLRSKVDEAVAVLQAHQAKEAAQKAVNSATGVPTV
MT1-MMP act inh: inhibitors of human MT1-MMP activation. AID 651647. 360,000 compounds, 0.061% hits. HT1080 RFP-PRO-GFP cells, GFP/RFP ratio fluorescence, overnight; percent of plate control window, DMSO zero. GFP/RFP ratio change, % at 20 µM. P50281;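 active = GFP/RFP ratio change of at least 30% with cell ATP level not reduced by more than half and red fluorescence within 50% of control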; also: strong numbers were not always called active
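Material – HT1080 RFP-PRO-GFP cells · Control set – DMSO wells and RFP-L50D-GFP cells · Incubation – overnight cell settling, then overnight compound exposure, 37 °C, 5% CO2 · Compound dosing – single-point 20 µM compound, 1% DMSO · Read-out – GFP/RFP fluorescence ratio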
Rce1 inhib: inhibitors of yeast Ras-converting enzyme. 290,000 compounds, 0.27% hits. Q03530. yeast membranes, quenched prenylated peptide cleavage fluorescence. calls only;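 active = fall in fluorescence gain of 50% or more versus controls, with final raw signal at or below 3038400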;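 also: plate controls were neutral control wells for no effect and wells lacking membranes for full effect; tested at 10 µM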
Target sequence (Q03530 whole entry, looked up): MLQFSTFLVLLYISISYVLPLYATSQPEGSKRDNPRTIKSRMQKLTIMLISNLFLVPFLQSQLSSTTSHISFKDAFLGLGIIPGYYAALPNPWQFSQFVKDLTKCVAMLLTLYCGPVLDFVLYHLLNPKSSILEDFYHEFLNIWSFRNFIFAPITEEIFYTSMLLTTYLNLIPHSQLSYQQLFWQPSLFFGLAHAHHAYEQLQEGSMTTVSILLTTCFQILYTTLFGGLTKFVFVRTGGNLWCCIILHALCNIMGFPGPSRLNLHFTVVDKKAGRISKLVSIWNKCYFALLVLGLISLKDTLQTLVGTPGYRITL
eIF4H inh: inhibitors of RNA binding by human eIF4H. Q15056. eIF4H fluorescence polarization binding assay. inhibition, % at 35 µM. 290,000 compounds, 0.94% hits. AID 2012;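 active = 50% or more with normal probe brightness, or confirmed in later tests; about a fifth of its hits are not listed in these tables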;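 also: calls also rest on retests at 20 µM and on dose response follow-up; 0% = protein and probe with vehicle and 100% = probe without protein; strong numbers were not always called active; many hits fall short of the cut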
eIF4H inh retest: recorded beside eIF4H inh, whose call it bears; inhibition, %; compound at 20 µM; confirmation average;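 mean of two retest wells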
PABP FP inh retest: recorded beside PABP FP inh, whose call it bears; inhibition, %; compound at 20 µM; confirmation repeats;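 mean of two retest wells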
MT1-MMP act inh RFP: also measured in MT1-MMP act inh; calls as there; RFP signal change, %; measured here: RFP expression control read;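 0 = vehicle wells; hits needed this value within 50% of zero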
* = called active by the depositor; i = inactive; · = no result given; & = joins results of further samples.

SMILES	Yeast UUG start	HIV Env fusion	CSC inhib	PABP FP inh	MT1-MMP act inh	MT1-MMP act inh RFP	Rce1 inhib	eIF4H inh	others
COc1cccc(C(=O)Nc2ccc(-c3nnc(-c4ccco4)o3)cc2)c1	0	·	-6	-8	0	-2	i	-7
OC1CCCN(c2ncnc3c2nnn3Cc2c(F)cccc2Cl)C1 (stereo not given)	-6	11	-12	-1	-1	-2	i	-9
CCC(C)N(C(=O)CSc1nnc(COc2ccccc2F)n1N)C1CCS(=O)(=O)C1 (stereo not given)	·	8	-5	·	2	4	i	·
CCn1cc(Br)c(C(=O)Nc2ccc(OC)cc2)n1	-8	-55	2	1	0	1	i	-8
CCC(=O)Nc1ccc(-c2ccc(NC(=O)CC)c(OC)c2)cc1OC	·	-16	·	3	6	-3	i	6
CCC(=O)NC(c1ccccc1OC)c1ccc2cccnc2c1O (stereo not given)	·	·	93*	10	5	-3	i	9
CC(Oc1ccc2ccc(=O)oc2c1)C(=O)N1CCOCC1 (stereo not given)	13	-53	12	·	0	2	i	·
CC1(C)COCN1S(=O)(=O)c1ccc(C(=O)Nc2nnc(-c3ccc(Cl)s3)o2)cc1	·	·	44	-4	·	·	i	15
CC(C)[C@H](NS(=O)(=O)c1ccccc1)C(=O)OCc1cc([N+](=O)[O-])cc2c1OCOC2	-12	-108	·	·	3	-3	·	·
O=S(=O)(NC1CCCCC1NCc1ccco1)c1ccccc1 (stereo not given)	-19	·	5	12	-4	2	i	-7
CCc1nnc(NS(=O)(=O)c2ccc(N/C=C\C(=O)c3cccc4ccccc34)cc2)s1	·	·	-15	6	-6	-5	i	17
CCOc1ccc(-c2cc(C(=O)NCc3ccc(F)cc3)[nH]n2)c(C)c1	-11	16	·	·	1	-1	·	·
Cc1oc(-c2ccccc2)nc1C(=O)O	·	4	-11	17	-2	0	i	-4
COc1cc(/C=C/C(=O)OCC(=O)N2CCN(S(=O)(=O)c3ccc(C)cc3C)CC2)ccc1O	-13	-3	5	8	-3	-8	i	22
C#CCOCCOCCOCCNc1nc(N2CCN(C(=O)[C@H](CCC(=O)O)n3cc(CN)nn3)CC2)nc(N2CCN(C(=O)[C@H](CCCCN)n3cc([C@@H](N)CC(N)=O)nn3)CC2)n1	-22	21	-11	·	0	3	·	·
O=c1c2ccccc2nc(-c2ccccc2)n1Cc1ccccc1	7	·	45	-2	-6	-4	i	8
COC(=O)c1cccc(NC(N)=S)c1	·	1	3	-6	-4	-2	i	3
CCCc1nnc(NC(=O)CCS(=O)(=O)Cc2ccccc2)s1	-29	8	-9	-10	2	-1	i	-21
O=C(CN1C(=O)c2ccc([N+](=O)[O-])cc2C1=O)Nc1nccs1	·	9	0	-6	8	9	i	-3
O=C(Cc1cccc([N+](=O)[O-])c1)Nc1cccc(C(=O)N2CCOCC2)c1	1	-7	-8	·	3	2	·	·
COc1ccc(S(=O)(=O)CCC(=O)N2CCN(c3ccc(F)cc3)CC2)cc1	·	-6	-15	-1	-2	-4	i	-3
FC(F)Oc1ccc(C2=Nn3c(nnc3-c3ccccc3Cl)SC2)cc1OCC1CC1	-18	15	·	·	7	2	·	·
CCc1ccc(C2NC(=S)NC3=C2C(=O)N(c2ccccc2OC)C(c2ccc(CC)cc2)N3)cc1 (stereo not given)	-3	-60	·	-4	2	-5	i	-9
O=C(NCCN1CCOCC1)c1cc(-c2cccc(Cl)c2)on1	-18	-4	-8	1	2	4	i	9
O=C(NCCCn1ccnc1)c1cc(Cl)cc(Cl)c1	-18	-12	-13	9	-1	-4	i	-13
CC1(C)CN(c2ccccc2)N(C(=O)c2ccc(F)cc2)C1=O	-14	·	92*	-9	1	0	·	-10
NNC(=S)NCc1ccccc1	·	5	-3	-12	-2	3	i	-12
COc1ccccc1CNC(=O)[C@H](NC(=O)C1CCN(C(=O)[C@@H](N)CCSC)CC1)C(C)C	-6	·	-10	-3	-3	-2	i	26
CC(Oc1ccccc1)C(=O)Nc1nnc(S(=O)(=O)Nc2ccccc2)s1 (stereo not given)	9	-24	-13	2	3	3	i	-2
Cn1ncc2c(NCCc3ccccc3)nc(Cl)nc21	-5	32	·	·	1	-14	·	·
Cc1ccc(C(=O)CN2/C(=C(\O)c3ccccc3)C(=O)c3ccccc3S2(=O)=O)c(C)c1	-15	·	17	-1	-8	-5	i	-14
CNc1ccccc1C(=O)OCC(=O)Nc1ccc2c(c1)OCO2	-4	8	·	·	9	3	i	·
Cc1ccc(S(=O)(=O)N(C)C[C@@H]2OCc3cnnn3CCCC(=O)N([C@@H](C)CO)C[C@H]2C)cc1	-8&0	-8	·	·	2	2	·	·
Cn1c(=O)c2c(nc(SCCCC#N)n2Cc2c(F)cccc2Cl)n(C)c1=O	0	9	-8	-4	-2	0	i	-7
CSc1ccccc1NC(=O)CN1CCN(Cc2ccccc2)CC1	·	·	5	-17	-2	-1	i	1
COc1ccc(N)cc1NC(=O)CN1CCCC1	-18	0	-3	-2	-2	2	i	-9
OCCN(Cc1ccccc1)Cc1ccc(C(F)(F)F)cc1	-4	·	1	8	-3	-1	i	13
Cc1ccnc(NC(=O)C23CC4CC(CC(C4)C2)C3)c1	-16	-56	-9	-6	1	0	i	12
O=C(COC(=O)c1cc(=O)[nH]c2ccccc12)NCc1ccc(Cl)cc1	1	·	-10	·	-1	0	·	·
CN(CC1CCCCO1)C(=O)c1cc(COc2ccc(F)cc2Cl)on1 (stereo not given)	-9	-13	3	-8	0	1	i	0
Cn1nnnc1SCC(=O)Nc1ccc(Oc2ccc(Cl)cc2)cc1	·	12	3	-1	-2	-5	i	13
Cc1ccc(CC(=O)NC2CCCc3ccccc32)cc1C (stereo not given)	-20	-8	-10	10	-1	-1	i	-9
CCOC(=O)c1ccccc1NC(=O)CSc1nc2c(c(=O)n(C)c(=O)n2C)n1C	·	·	·	2	·	·	i	-8
COc1ccc(N2C(=O)NC(NC(=O)c3ccncc3)(C(F)(F)F)C2=O)cc1 (stereo not given)	-9	-20	-3	-11	5	1	i	-4
COc1cccc(C(c2nnnn2CC2CCCO2)N2CCN(C(=O)c3ccco3)CC2)c1OC (stereo not given)	-12	4	-5	6	4	5	i	-7
O=[N+]([O-])c1ccccc1N/N=C1\CC2CC=CC12 (stereo not given)	·	-8	2	-8	4	3	i	-2
COc1ccc(C(=O)Nc2cc(OC)ccc2OC)cc1	0	·	·	-2	3	4	i	-7
CCOC(=O)c1cnc2ccccc2c1Nc1ccc2c(c1)OCCO2	·	22	8	0	-3	-6	i	4
CCn1c(C)cs/c1=N\S(=O)(=O)c1ccccc1	-7	-8	1	·	5	-1	i	·
CCOc1cc(/C=N/NC(=O)c2cc3c(ccc4ccccc43)o2)ccc1O	-3	1	-9	6	3	0	i	-5
CS(=O)(=O)N(CC(=O)NCCSc1ccccn1)c1cccc2ccccc12	-15	·	-20	12	-1	0	i	6
C[C@@H](C(=O)CC(=O)OC(C)(C)C)[C@@H](O)c1ccccc1	-13	-7	-13	9	-1	0	i	5
Cc1ccc(C(=O)Nc2ccc(OCc3ccccc3)cc2)cc1[N+](=O)[O-]	14	-212	2	-6	1	-4	i	-7
CCOC(=O)CSc1nnc(-c2ccccc2)c(=O)[nH]1	-23	-43	7	10	4	-1	i	0
CCOC(=O)c1cnc2c(-c3ccccc3)cnn2c1N	-27	i	2	2	4	5	i	-1
CCCn1c(-c2ccc(OC)cc2)nc2ccccc21	-16	-9	3	1	-4	-7	i	6
Cc1cc(=O)oc2cc(OCC(=O)Nc3cccnc3)ccc12	-13	4	-18	·	4	0	·	·
COc1ccc(N2CCN(CC(O)COc3cc(C)ccc3C)CC2)cc1 (stereo not given)	11	30	12	26	4	0	i	2
CCCN1C2=NCCN2c2ccccc21	-5	·	-9	-2	-1	1	i	-3
Cc1cccc(NC(=O)CSc2nnc(-c3ccc(S(=O)(=O)N4CCCC4)cc3)o2)c1	-14	·	1	2	-1	0	i	-6
Next part.
SMILES	Yeast UUG start	HIV Env fusion	CSC inhib	PABP FP inh	MT1-MMP act inh	MT1-MMP act inh RFP	Rce1 inhib	eIF4H inh	others
Cc1cc(S(=O)(=O)NC(=O)[C@H]2O[C@@H](n3cnc4c(N)ncnc43)[C@H](O)[C@@H]2O)ccc1Br	-6	32	·	·	-4	5	·	·
COc1cccc2c1OCC([C@@H]1C[C@H]3CN(Cc4cccc(Cl)c4)C(=O)[C@]34CCCN14)=C2	5	25	0	-11	-3	-6	i	5
CC1(C(=O)NCc2ccc3c(c2)OCO3)CCN1C(=O)C1(c2ccc(Cl)cc2)CC1 (stereo not given)	-15	12	·	·	3	-5	·	·
CC(NC(=O)c1ccccc1)C(=O)N/N=C/c1ccco1 (stereo not given)	-16	-6	·	3	1	2	i	-1
COc1ccc(CCn2ccc(O)c(Cc3c(F)cccc3Cl)c2=O)cc1OC	·	23	2	33	0	-4	i	1
O=c1[nH]cnc2nc3n(c12)CCCCC3	-10	·	-19	-10	1	5	·	-6
CC(=O)c1c(C)[nH]c(C(=O)COc2ccc(C#N)cc2)c1C	·	·	-13	1	2	-5	i	8
O=C(Nc1ccccc1)c1cccc(C(F)(F)F)c1	·	-2	14	10	0	5	i	-1
CCOc1ccc(CCNC(=O)COC(=O)C2=NNC(=O)CC2)cc1OCC	-6	7	-10	·	1	3	i	·
O=C(c1ccc(Cl)c(S(=O)(=O)N2CCCCC2)c1)N1CCCC1	-17	20	-3	-12	3	2	i	-6
Cc1ccc(N(Cc2cc3ccccc3[nH]c2=O)C(=O)c2cccs2)cc1C	-9	24	·	-9	-7	-8	i	-8
O=C(NCCN1CCOCC1)c1ccc2c(c1)N(Cc1ccccc1)C(=O)CS2	-4	-2	-8	-5	-2	-1	i	1
Cc1ccc(-c2nc3ccccn3c2Nc2ccccc2)o1	·	·	-9	-15	10	-5	i	2
COC/C=C/C1=CC2=CC(=O)C(C)(OC(=O)C3CCCC3)C(=O)C2=CO1 (stereo not given)	18	18	1	49*	3	14	i	62*	eIF4H inh retest=83*;PABP FP inh retest=73*
COc1ccc(OCCCC(=O)Nc2ncn[nH]2)cc1	·	-8	-8	0	1	1	i	-1
CCn1c(SCC(=O)NCc2ccccc2)nnc1-c1c[nH]c2ccccc12	-16	47	·	-3	1	0	i	5
CCN(CC)S(=O)(=O)c1cc(-c2nnc(-c3ccc(Br)cc3)o2)ccc1Cl	-23	·	38	1	-3	-24	i	0
CC1CCCN1CC#CC(O)(c1ccccc1)c1ccccc1 (stereo not given)	-5	5	20	-1	-7	-1	i	-5
C/C(=N\NC(=O)C1CCCC1)c1ccc(Cl)cc1	-10	3	3	-10	3	5	i	-5
CCOC(=O)c1cnc2ccc(Br)cc2c1NCC(C)O (stereo not given)	·	·	·	-7	-1	8	·	-13
CCc1ccc(Nc2nnc(SCC(=O)NC(=O)c3cccn3C)s2)cc1	·	-4	1	6	-2	-2	i	6
CCSc1oc(-c2cccs2)nc1S(=O)(=O)c1ccccc1	5	-4	-1	8	-6	-11	i	15

Random excerpt: 4 compounds from above
SMILES	Yeast UUG start	HIV Env fusion	CSC inhib	PABP FP inh	MT1-MMP act inh	MT1-MMP act inh RFP	Rce1 inhib	eIF4H inh	others
CC(NC(=O)c1ccccc1)C(=O)N/N=C/c1ccco1 (stereo not given)	-16	-6	·	3	1	2	i	-1
COc1ccccc1CNC(=O)[C@H](NC(=O)C1CCN(C(=O)[C@@H](N)CCSC)CC1)C(C)C	-6	·	-10	-3	-3	-2	i	26
CC1(C(=O)NCc2ccc3c(c2)OCO3)CCN1C(=O)C1(c2ccc(Cl)cc2)CC1 (stereo not given)	-15	12	·	·	3	-5	·	·
Cc1ccc(-c2nc3ccccn3c2Nc2ccccc2)o1	·	·	-9	-15	10	-5	i	2
